Screening data as filed in PubChem BioAssay.
TRPML1 inh = inhibitors of human TRPML1 channel. AID 624415. activity change, negative = inhibition, % (no concentration beside the values). 390,000 compounds, 0.02% hits. TRPML1-inducible cells, Ca2+ dye fluorescence, FDSS; stronger effect = lower value; inhibition of EC80 agonist-evoked calcium signal. Q9GZU1; in the data active means activity change below about -50%; inconclusive means about -30% to -50%; inactive means above about -30%;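 note: stimulus is agonist 54-4 at its EC80 concentration; % is set by controls: 0 for no effect and ±100 for the full control effect; compound concentration not given in the record; the text of the record puts the active cut at -80%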
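Calcium fluorescence in TRPML1-DL cells induced overnight with Tet: a 110 s read after compound pin addition, then a 110 s antagonist read after challenge with 54-4 at 4 uM final (EC80).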
TRPV1 potentiator = enhances activation of the human vanilloid receptor TRPV1; Q8NER1; TRPV1-expressing cells, Fluo-8 calcium influx, capsaicin EC20 potentiation; host cell line not named in the record; control for the full effect not named in the record; potentiation, % at 8.33 µM; 320,000 compounds, 0.02% hits; active means potentiation above 80%; inconclusive means 30% to 80%; inactive means below 30%; note: 0% is about no effect
Target sequence (Q8NER1 whole entry, looked up): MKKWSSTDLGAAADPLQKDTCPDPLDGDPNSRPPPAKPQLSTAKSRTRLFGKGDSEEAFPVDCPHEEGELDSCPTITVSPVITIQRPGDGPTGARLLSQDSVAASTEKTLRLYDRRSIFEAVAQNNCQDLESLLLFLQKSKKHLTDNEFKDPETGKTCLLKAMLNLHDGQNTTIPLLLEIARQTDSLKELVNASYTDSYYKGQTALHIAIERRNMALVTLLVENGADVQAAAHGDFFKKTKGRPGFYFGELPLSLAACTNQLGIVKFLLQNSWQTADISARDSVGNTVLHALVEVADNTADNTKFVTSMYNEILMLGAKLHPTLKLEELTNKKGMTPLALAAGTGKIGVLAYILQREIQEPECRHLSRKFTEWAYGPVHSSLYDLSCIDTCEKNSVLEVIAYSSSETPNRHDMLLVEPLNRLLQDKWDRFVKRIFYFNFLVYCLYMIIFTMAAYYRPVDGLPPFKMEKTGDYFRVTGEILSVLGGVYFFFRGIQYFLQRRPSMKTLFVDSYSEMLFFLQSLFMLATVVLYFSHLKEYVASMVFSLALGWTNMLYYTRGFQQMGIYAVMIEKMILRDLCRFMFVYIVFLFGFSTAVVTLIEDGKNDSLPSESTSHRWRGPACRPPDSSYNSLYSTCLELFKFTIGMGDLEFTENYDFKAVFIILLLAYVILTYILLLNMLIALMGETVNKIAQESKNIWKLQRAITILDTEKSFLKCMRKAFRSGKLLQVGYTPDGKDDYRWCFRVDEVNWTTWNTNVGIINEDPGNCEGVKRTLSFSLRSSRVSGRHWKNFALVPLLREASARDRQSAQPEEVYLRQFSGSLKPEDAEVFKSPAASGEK
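TRPV1-expressing cells were cultured overnight at 35.5C and loaded with Fluo-8 calcium dye for 40 to 90 min at room temperature. After a 10 s baseline, compound was added and calcium influx was read kinetically for 3 min (ex 480/em 520 nm).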
Menin-MLL FL inh = menin-MLL binding inhibition, fluorescein peptide; Fluorescence polarization, fluorescein-MLL peptide displacement from menin; FP activity change, % at 61.4 µM; 290,000 tested, under 10 active; inconclusive = falling polarisation curve, or a change in total fluorescence; inactive = total fluorescence flat and polarisation flat or rising; no compound was filed as active; the % refers to the polarisation; negative = inhibition;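 note: % of control where 0% means no effect; inhibitors lower the polarisation; unlabelled MLL peptide was the positive control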
gsp agonist = agonists of gsp mutant (McCune-Albright syndrome). gsp mutant cells, cAMP HTRF, 30 min; control for the full effect not named in the record. 340,000 compounds, 0.13% hits. AID 624287. Potency, µM (titrated, usually from 76.9 µM), inactives show top-dose activation (cAMP increase), hits mostly activators; active = well fitted activation curve with a large enough effect; inconclusive = small, poorly fitted or top-dose-only effect, or another doubt; inactive = no such curve, though single readings can be large or run the other way; cell line not stated here;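 note: phosphodiesterase inhibitor Ro 20-1724 added with compounds to block cAMP breakdown; potency is the fitted concentration of half-maximal effect; nearly all actives have a fitted effect of over 60% in size; about a fifth of the inactives were tested at one dose only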
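Cells in DMEM/10% FBS with G418 were pretreated with compounds in DMSO plus […] (300 uM stock) for 30 min at 37C. cAMP was measured by HTRF (cAMP-d2 plus anti-cAMP antibody-K) after 30 min at room temperature.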
Sfp inh = blocks B. subtilis Sfp PPTase activity; Biochemical Sfp PPTase activity, qHTS; Potency, µM, for inactives: max response, negative = inhibition, usual class: inhibitors; 310,000 compounds, 3.5% hits; AID 1490; active = well fitted inhibition curve with a large enough effect; inconclusive = small, poorly fitted or top-dose-only effect, or another doubt; inactive = no such curve, though single readings can be large or run the other way;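 note: the enzyme is Sfp with the accession as filed and its product quenches rhodamine fluorescence; potency is the fitted concentration of half-maximal effect; 0% = enzyme reaction without inhibitor and -100% = no enzyme wells; top concentration of the series not given in the record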
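Fluorescence-quenching assay: 15 nM Sfp-PPTase preincubated 15 min at room temperature with compound, then 5 uM rhodamine-CoA and 12.5 uM BHQ-2-labelled YbbR peptide added. Fluorescence (ex 525/em 598 nm) read at start and after 30 min; difference gives rate.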
gsp antagonist = antagonizes gsp, the McCune-Albright syndrome mutation | 340,000 compounds, 0.4% hits | gsp-mutant cells, cAMP HTRF, 30 min; control for the full effect not named in the record | Potency, µM (top dose mostly 76.9 µM), for the others: at the top dose activity change, negative = inhibition, usual class: inhibitors; active = falling curve of any shape with a large fitted effect; inconclusive = falling curve, mostly with a smaller effect; inactive = flat or rising curve; cell line not stated here;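 note: intracellular cAMP measured with PDE inhibitor Ro 20-1724 present during compound exposure; potency is the fitted concentration of half-maximal effect; % is set by controls: 0 for no effect and ±100 for the full control effect; nearly all actives have a fitted effect of over 65% in size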
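Cells in G418 medium, seeded 16-24 h, 37C; buffer exchange to DPBS + 1 mM CaCl2, 0.5 mM MgCl2, 0.05% BSA; cpds in DMSO + […] (300 uM stock), 30 min 37C; HTRF cAMP detection.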
ClpP mod = qHTS Assay for Activators of ClpP | purified B. subtilis ClpP, FRET peptide cleavage, 20 min | Potency, µM (highest dose often 57.5 µM), for the others: at the highest dose activity change, negative = active | AID 651965, 2013 | ATP-dependent Clp protease proteolytic subunit (Bacillus subtilis (strain 168)), P80244 | 340,000 compounds, 1.9% hits; active = well fitted falling curve with a large enough effect; inconclusive = small, poorly fitted or top-dose-only effect; inactive = no such curve, though single readings can be large or run the other way; note: potency is the fitted concentration of half-maximal effect; the source files actives as falling curves though it sought activators and does not explain the sign; nearly all actives have a fitted effect of over 65% in size; many hits overshoot -100%
Target sequence (P80244 whole entry, looked up): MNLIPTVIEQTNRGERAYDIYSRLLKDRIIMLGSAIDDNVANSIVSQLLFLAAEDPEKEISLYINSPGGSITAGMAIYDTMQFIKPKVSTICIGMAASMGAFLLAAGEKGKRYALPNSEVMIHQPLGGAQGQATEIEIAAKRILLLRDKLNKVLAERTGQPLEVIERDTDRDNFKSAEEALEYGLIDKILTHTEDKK
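Buffer: 100 mM Tris/HCl pH8, 100 mM KCl, 0.05% low protease BSA, 2.5% glycerol, 0.01% Tween-20. ClpP 10 microg/mL final; 20 min RT; delta FRET normalized to ADEP and DMSO controls.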
Active calls of the source: *; ? = inconclusive; / = no result given; [ ] = remark or other dose. Compounds as they come. About 4.9% of those tested had a hit in this group.

SMILES	TRPML1 inh	TRPV1 potentiator	Menin-MLL FL inh	gsp agonist	Sfp inh	gsp antagonist	ClpP mod
CC[C@]12c3[nH]c4ccc(OC)cc4c3CCN1C(=O)C(CC(=O)NC/C=C(\C)CCC=C(C)C)C[C@@H]2C(=O)N1CCN(C(=O)c2ccco2)CC1 (some centres undefined)	-8	/	/	/	/	?	-2.0%
CS(=O)(=O)N1CCN(C/C=C/c2ccccc2)CC1	5	0	2.6	12%	18%	7%	-1.9%
CCOC(=O)c1ccc2c(c1)nc(-c1ccccn1)n2CC	-2	-6	0.9	1%[15.4 µM]	-6%	-36%	/
Clc1cccc(-c2ccnc3nc(-n4cccc4)nn23)c1	2	1	-0.4	41%	10%	3%	-5.2%
OCC1(Cc2ccccc2)CCN(Cc2ccccn2)CC1	-24	2	-0.2	-20%	15%	17%	-0.3%
CCc1ccccc1Nc1nc(N)nc(COC(=O)CCS(=O)(=O)c2ccccc2)n1	-11	-4	/	8%	/	4%	0.9%
COc1ccc(Cn2cccc(NC(=O)Nc3cccc(C#N)c3)c2=O)cc1	-10	-18	3.9	-6%	14%	4%	?
CC1(C)CC(=O)C2=C(C1)c1c(ccc3ccccc13)NC2c1ccco1 (centres undefined)	12	-5	1.4	-4%	-24%	?	25µM*
Cc1ccc(NC(=O)c2ccc(NCCN)c([N+](=O)[O-])c2)cc1	-6	2	2.0	?	?	-6%	-3.8%
CN(c1ccc(C(=O)Nc2ccccc2C(F)(F)F)cc1)S(C)(=O)=O	6	-4	3.8	-50%[inhibitor]	3%	-2%	1.6%
Fc1ccccc1NC(=S)N1CCOCC1	1	-3	1.2	8%	5%	9%	0.7%
O=C(CN(Cc1ccccc1)C(=O)CNS(=O)(=O)c1ccccc1)NCc1ccco1	9	7	2.8	-2%[15.4 µM]	10%	11%	1.0%
O=C(CCNS(=O)(=O)c1ccc(OC(F)(F)F)cc1)NC1CC1	-12	/	/	-1%	/	6%	/
COc1ccc(-c2csc(Nc3cccnc3)n2)cc1	0	16	4.4	23%	79µM*	4%	-1.9%
COc1ccc(NC(=O)c2c(NC(=O)CNCc3ccco3)sc3c2CCC3)c(OC)c1	55	?	1.9	-16%	3%	-6%	?
CCn1cc(C(c2ccccc2)C(C(C)=O)[N+](=O)[O-])c2ccccc21 (centres undefined)	13	13	3.6	8%[15.4 µM]	18%	-12%	/
Cn1cc([N+](=O)[O-])c(C(=O)N2CCN(Cc3ccc4c(c3)OCO4)CC2)n1	17	-3	/	3%	7%	10%	-2.8%
COc1ccc(OC)c(NC(=O)CCCN2C(=S)NC(C)(C)CC2C)c1 (centres undefined)	8	6	3.3	8%[15.4 µM]	15%	-8%	?
CCCCC(=O)Nc1ccc2c(c1)nc(CCN1CCOCC1)n2C	15	2	-0.6	0%	-10%	5%	-14%
c1ccc2c(c1)N1CCN=C1N2CCN1CCCCC1	3	3	1.8	8%	5%	12%	-0.6%
CCCOc1ccc2cc(C(=O)NCc3ccccc3)c(=O)oc2c1	4	-19	6.5	8%[15.4 µM]	7%	18%	/
Oc1ccc(CNc2ccccc2)c2cccnc12	7	11	1.5	0%	21%	2%	1.2%
CSc1cccc(NC(=S)N(CCCN2CCCC2)Cc2cccn2Cc2ccc(Cl)cc2)c1	7	4	-3.9	-27%[15.4 µM]	79µM*	11%	/
Cc1cc(=O)n2nc(N3CCC(C(=O)NCc4cccc(Cl)c4)CC3)sc2n1	-1	12	/	?	15%	-2%	-2.6%
O=S(=O)(/C=C/C=C/S(=O)(=O)c1ccccc1)c1ccccc1	-3	/	/	13%	/	-14%	-3.0%
New compounds follow:
SMILES	TRPML1 inh	TRPV1 potentiator	Menin-MLL FL inh	gsp agonist	Sfp inh	gsp antagonist	ClpP mod
Cc1ccc(Cn2ncc3c(NCCCN(C)C)ncnc32)cc1	/	2	5.9	7%	11%	19%	3.0%
COc1ccc(N=Cc2nc(-c3ccccc3)oc2OC(C)=O)cc1	-16	23	0.8	5%	-6%	12%	0.0%
COc1ccc(N(C(=O)/C=C/c2ccccc2)C2=CC3CCC(C2)N3C)cc1 (centres undefined)	7	0	2.4	17%[15.4 µM]	10%	1%	/
CC1(C)CC(=O)c2c(nn(-c3ccccc3)c2N)C1	-3	1	-1.6	26%	15%	2%	-1.8%
COCCn1c(CN2CCN(c3ccc(F)cc3)CC2)nc2c1c(=O)n(C)c(=O)n2C	/	3	-3.0	/	15%	/	/
C#CCOCCOCCOCCNc1nc(N2CCN(C(=O)[C@H](CCCCN)n3cc([C@@H](N)CO)nn3)CC2)nc(N2CCN(C(=O)[C@H](Cc3cc4ccccc4[nH]3)n3cc([C@@H](N)CO)nn3)CC2)n1	/	8	3.0	/	7%	/	/
Cc1nc2cc3c(cc2s1)OCO3	-7	-10	1.6	-3%[15.4 µM]	22%	9%	-1.2%
Cc1ccc(C)c(N2CCN(C(=O)c3ccc4nc(N5CCOCC5)sc4c3)CC2)c1	3	-18	/	-11%	-13%	-20%	-4.0%
O=C(c1ccco1)N1N=C(c2cccs2)CC1c1ccc(F)cc1 (centres undefined)	29	-6	-1.3	-43%[inhibitor]	56µM*	-21%	-2.6%
CSCCOC(=O)C1=C(C)NC(=O)CC1c1ccccc1Cl (centres undefined)	13	-23	-1.0	17%	3%	1%	1.6%
COC(=O)c1ccc(-n2cnc(Cl)n2)c(F)c1	15	/	4.9	-5%	0%	5%	-0.7%
Cc1nc2c(C(=O)N3CCN(C)CC3)cnn2c(C)c1Cc1ccc(Cl)cc1	28	0	-0.2	16%	3%	7%	25µM*
CCSc1nc(-c2ccccc2)nc(C(Cl)Cl)n1	-24	5	3.8	-22%	-2%	-6%	0.4%
Cc1cccc(OCCCC(=O)Nc2ccc(Cl)c(S(=O)(=O)N3CCOCC3)c2)c1	56	-3	/	9%	/	-20%	0.8%
Cc1nnc(N/N=C/c2ccc([N+](=O)[O-])cc2)n1N	-14	3	-0.2	9%[15.4 µM]	13%	8%	/
COc1cc(OC)cc(C(=O)Nc2ccn(C)n2)c1	5	-1	/	-2%	/	4%	-1.7%
O=C(/C=C\c1ccccc1)NCC(=O)N/N=C/c1ccc(O)cc1O	6	7	-1.0	26%	20%	-7%	-9.8%
OC(c1ccc2c(c1)OCO2)c1nccc2ccccc12 (centres undefined)	6	10	5.0	-46%[inhibitor]	-8%	0%	0.3%
CCc1ccc(N2C(=O)C3ON(c4ccccc4)C(c4ccco4)C3C2=O)cc1 (centres undefined)	7	-1	-1.2	-44%[inhibitor]	8%	-13%	-1.0%
Cc1ccc(COn2c(-c3ccc(Cl)cc3Cl)nc3ncccc32)cc1	91	-5	2.4	-33%[inhibitor]	-10%	-22%	-0.4%
C=CCOC(=O)c1sc(NC(=O)c2ccco2)nc1C	-6	-6	-2.2	-45%[inhibitor]	15%	-5%	-18%
O=C(N/N=C/C=C/c1ccco1)c1cccc([N+](=O)[O-])c1	-4	-9	0.1	4%	-21%	?	1.0%
COc1cc(/C=N/NC(=O)C(=O)NCc2ccco2)cc(Cl)c1O	-6	6	0.1	5%	-8%	-29%	1.1%
O=C(Nc1ccc(S(=O)(=O)Nc2nccs2)cc1)c1nn(-c2ccc(F)cc2)ccc1=O	-5	-12	-3.1	7%	5%	1%	0.5%
O=C(CSc1ccc(F)cc1)Nc1nnc(-c2ccco2)o1	-5	-4	/	-17%[15.4 µM]	/	7%	/

Reprinted at random: two records from the list, in no set order.
SMILES	TRPML1 inh	TRPV1 potentiator	Menin-MLL FL inh	gsp agonist	Sfp inh	gsp antagonist	ClpP mod
C#CCOCCOCCOCCNc1nc(N2CCN(C(=O)[C@H](CCCCN)n3cc([C@@H](N)CO)nn3)CC2)nc(N2CCN(C(=O)[C@H](Cc3cc4ccccc4[nH]3)n3cc([C@@H](N)CO)nn3)CC2)n1	/	8	3.0	/	7%	/	/
Cc1nc2cc3c(cc2s1)OCO3	-7	-10	1.6	-3%[15.4 µM]	22%	9%	-1.2%

Further entries follow.
SMILES	TRPML1 inh	TRPV1 potentiator	Menin-MLL FL inh	gsp agonist	Sfp inh	gsp antagonist	ClpP mod
O=C(CCC1COc2ccccc2O1)N1CCCC1 (centres undefined)	-1	20	-0.3	-10%	10%	5%	-2.5%
Cc1ccc(C)c(NC(=O)c2cc[n+](C)cc2)c1	4	0	4.2	6%[15.4 µM]	2%	7%	-1.2%
COc1ccccc1N(CC(=O)NCCC1=CCCCC1)S(=O)(=O)c1ccccc1	18	-6	-2.3	?	12%	-24%	/
Cc1cc(Cl)n2nc(C)c(-c3ccc(Cl)cc3)c2n1	-7	0	-1.0	11%[15.4 µM]	-19%	-22%	-0.9%
Cc1cc(=O)[nH]c(SCC(=O)N2CCN(S(=O)(=O)c3ccccc3)C2)n1	0	22	2.4	-46%[inhibitor]	?	18%	/
O=[N+]([O-])c1ccc(Sc2cccc[n+]2[O-])c2nonc12	7	-4	?	11%[15.4 µM]	1.3µM*	35µM*	1.8%
O=C(O)c1ccc2cc(-c3ccccc3)[nH]c2c1	14	/	/	28%	/	-10%	3.9%
COc1ccc(/C=C2/C(=O)N(c3ccccc3)N=C2C)cc1Br	21	0	-18	-3%	50µM*	-22%	/
O=C(CCC(=O)OCC(=O)c1ccccc1)NC1CCCCC1	-9	-14	-1.0	-36%[inhibitor]	20%	6%	-1.2%
Cc1cccc(C(=O)N2CCN(S(=O)(=O)N3CCCCCC3)CC2)c1	6	21	2.9	0%[15.4 µM]	7%	/	/
O=C(CN1CCN(S(=O)(=O)/C=C/c2ccccc2)CC1)NCC(F)(F)F	4	4	4.3	8%[15.4 µM]	18%	7%	/
COc1ccc(Br)cc1/C=N/NC(=O)CNC(=O)/C=C/c1ccccc1	-5	28	1.1	-28%	7%	-11%	-2.5%
